ClpP mod: qHTS Assay for Activators of ClpP; ATP-dependent Clp protease proteolytic subunit (Bacillus subtilis (strain 168)), P80244; purified B. subtilis ClpP, FRET peptide cleavage, 20 min; Potency, µM (highest dose often 57.5 µM), without a hit: top-dose activity change, negative = active; 340,000 compounds, 1.9% hits; AID 651965, 2013; active = well fitted falling curve with a large enough effect; inconclusive = small, poorly fitted or top-dose-only effect; inactive = no such curve, though single readings can be large or run the other way; also: potency is read from the fitted curve at half-maximal effect; the source files actives as falling curves though it sought activators and does not explain the sign; nearly all actives have a fitted effect of over 65% in size; many hits overshoot -100%
Target sequence (P80244 whole entry, looked up): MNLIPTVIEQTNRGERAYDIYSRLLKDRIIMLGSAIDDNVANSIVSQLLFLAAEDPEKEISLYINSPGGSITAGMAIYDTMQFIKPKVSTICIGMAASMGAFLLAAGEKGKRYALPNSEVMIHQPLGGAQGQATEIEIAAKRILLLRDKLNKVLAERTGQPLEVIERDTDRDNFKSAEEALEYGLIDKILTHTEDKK
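Buffer: 100 mM Tris/HCl pH8, 100 mM KCl, 0.05% low protease BSA, 2.5% glycerol, 0.01% Tween-20. ClpP 10 microg/mL final; 20 min RT; delta FRET normalized to ADEP and DMSO controls.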
gsp antagonist: qHTS for Antagonists of gsp, the Etiologic Mutation Responsible for Fibrous Dysplasia/McCune-Albright Syndrome: qHTS; Potency, µM (highest dose often 76.9 µM), for inactives: top-dose activity change, negative = inhibition, most hits filed as inhibitors; 340,000 compounds, 0.4% hits; gsp-mutant cells, cAMP HTRF, 30 min; control for the full effect not named in the record; active = falling curve of any shape with a large fitted effect; inconclusive = falling curve, mostly with a smaller effect; inactive = flat or rising curve; cell line not stated here;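 also: intracellular cAMP measured with PDE inhibitor Ro 20-1724 present during compound exposure; potency is read from the fitted curve at half-maximal effect; % is scaled to controls: 0 for no effect and ±100 for the full control effect; nearly all actives have a fitted effect of over 65% in size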
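HTRF cAMP measurement after 30 min RT detection following 30 min, 37C compound treatment alongside […] (added as 300 uM solution) in G418-selected cells seeded at 2000/well and grown 16–24 h.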
Menin MLL FP FL: qHTS Assay for Inhibitors Targeting the Menin-MLL Interaction in MLL Related Leukemias: Competition With Fluorescein Labeled MLL-derived Peptide; AID 1766, 2009; FP activity change, % at 61.4 µM; Fluorescence polarization, fluorescein-MLL peptide displacement from menin; 290,000 tested, under 10 active; inconclusive = falling polarisation curve, or a change in total fluorescence; inactive = total fluorescence flat and polarisation flat or rising; no compound was filed as active; the % refers to the polarisation; negative = inhibition;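 also: % of control where 0% means no effect; inhibitors lower the polarisation; unlabelled MLL peptide was the positive control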
TRPML1 inh: qHTS for Inhibitors of the Human Mucolipin Transient Receptor Potential 1 (TRPML1); Mucolipin-1 (Homo sapiens), Q9GZU1; AID 624415, 2012; TRPML1-inducible cells, Ca2+ dye fluorescence, FDSS; hits give low values; inhibition of EC80 agonist-evoked calcium signal; 390,000 compounds, 0.02% hits; activity change, negative = inhibition, % (no concentration beside the values); in the data active means activity change below about -50%; inconclusive means about -30% to -50%; inactive means above about -30%;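 also: stimulus is agonist 54-4 at its EC80 concentration; % is scaled to controls: 0 for no effect and ±100 for the full control effect; compound concentration not given in the record; the text of the record puts the active cut at -80%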
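Tet-induced TRPML1-DL cells loaded with Ca8 no-wash calcium dye were read kinetically on FDSS. Compound addition was followed by EC80 agonist 54-4 (4 uM final); inhibition was read over 110 s.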
Sfp inh: qHTS Assay for Inhibitors of Bacillus subtilis Sfp phosphopantetheinyl transferase (PPTase) | Potency, µM, for inactives: max response, negative = inhibition, most hits filed as inhibitors | 310,000 compounds, 3.5% hits | Biochemical Sfp PPTase activity, qHTS; active = well fitted inhibition curve with a large enough effect; inconclusive = small, poorly fitted or top-dose-only effect, or another doubt; inactive = no such curve, though single readings can be large or run the other way;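 also: the enzyme is Sfp with the accession as filed and its product quenches rhodamine fluorescence; potency is read from the fitted curve at half-maximal effect; 0% = enzyme reaction without inhibitor and -100% = no enzyme wells; top concentration of the series not given in the record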
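Sfp 15 nM + cpd, 15 min RT; start w/ rhodamine-CoA 5 uM, BHQ-2-YbbR 12.5 uM (final); 50 mM Hepes pH 7.6, 10 mM MgCl2, 0.01% NP-40, 0.01% BSA; read 525/598 nm at 0 and 30 min.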
gsp ag: qHTS for Agonist of gsp, the Etiologic Mutation Responsible for Fibrous Dysplasia/McCune-Albright Syndrome: qHTS; gsp mutant cells, cAMP HTRF, 30 min; control for the full effect not named in the record; Potency, µM (highest dose often 76.9 µM), inactives show at the top dose activation (cAMP increase), actives largely listed as activators; 340,000 compounds, 0.13% hits; AID 624287, 2012; active = well fitted activation curve with a large enough effect; inconclusive = small, poorly fitted or top-dose-only effect, or another doubt; inactive = no such curve, though single readings can be large or run the other way; cell line not stated here;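 also: phosphodiesterase inhibitor Ro 20-1724 added with compounds to block cAMP breakdown; potency is read from the fitted curve at half-maximal effect; nearly all actives have a fitted effect of over 60% in size; about a fifth of the inactives were tested at one dose only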
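Cells stably selected in G418 were plated at 2000/well, grown 16-24 hr, then given compounds in DMSO with the PDE inhibitor […] (300 uM solution added) for 30 min at 37C; cAMP was read by HTRF.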
TRPV1 potentiator: HTS Assay for Compounds that Act as Potentiators of the Vanilloid Receptor 1; TRPV1-expressing cells, Fluo-8 calcium influx, capsaicin EC20 potentiation; host cell line not named in the record; control for the full effect not named in the record; potentiation, % at 8.33 µM; 320,000 compounds, 0.02% hits; AID 540277, 2011; active means potentiation above 80%; inconclusive means 30% to 80%; inactive means below 30%; also: 0% is about no effect
Target sequence (Q8NER1 whole entry, looked up): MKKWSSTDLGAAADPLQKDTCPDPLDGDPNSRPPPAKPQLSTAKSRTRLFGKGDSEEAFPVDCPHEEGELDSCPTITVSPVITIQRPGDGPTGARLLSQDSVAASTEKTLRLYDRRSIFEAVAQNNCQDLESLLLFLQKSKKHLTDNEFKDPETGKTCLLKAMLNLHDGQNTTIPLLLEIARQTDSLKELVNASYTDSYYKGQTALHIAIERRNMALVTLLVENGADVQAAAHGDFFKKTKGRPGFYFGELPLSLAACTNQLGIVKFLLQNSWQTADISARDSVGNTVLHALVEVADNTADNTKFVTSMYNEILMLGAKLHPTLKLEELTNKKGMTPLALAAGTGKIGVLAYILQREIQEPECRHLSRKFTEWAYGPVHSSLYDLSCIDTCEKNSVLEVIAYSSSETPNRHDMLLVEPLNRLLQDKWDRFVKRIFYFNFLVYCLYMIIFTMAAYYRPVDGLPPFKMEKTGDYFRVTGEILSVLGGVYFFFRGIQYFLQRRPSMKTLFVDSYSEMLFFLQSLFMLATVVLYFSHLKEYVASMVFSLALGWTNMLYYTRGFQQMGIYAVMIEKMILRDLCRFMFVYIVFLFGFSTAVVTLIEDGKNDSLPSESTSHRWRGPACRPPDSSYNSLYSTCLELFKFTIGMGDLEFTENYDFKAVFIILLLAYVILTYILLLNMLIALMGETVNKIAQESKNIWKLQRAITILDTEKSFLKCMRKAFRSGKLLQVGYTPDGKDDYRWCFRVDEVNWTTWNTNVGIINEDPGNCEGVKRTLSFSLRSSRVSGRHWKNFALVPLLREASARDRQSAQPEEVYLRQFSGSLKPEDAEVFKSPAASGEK
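Cells expressing TRPV1 were dye-loaded with Fluo-8 and read kinetically: 10 s baseline, 3 min after compound (agonist portion), then 2 min after EC20 capsaicin (allosteric enhancer portion). Calcium-bound dye fluorescence at 480/520 nm.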
* = called active by the depositor; ? = inconclusive; nt = not tested or not shown; & = joins results of further samples; [ ] = remark or other dose.

SMILES	ClpP mod	gsp antagonist	Menin MLL FP FL	TRPML1 inh	Sfp inh	gsp ag	TRPV1 potentiator
CCN(CC)CCOC(=O)/C=C/c1ccccc1OC	-29%	10%	-0.7	-11	6%	-5%	22
COc1ccc(C2/C=C\CN(S(=O)(=O)c3ccc(C)cc3)CC(=O)N2Cc2ccc(F)cc2)cc1 (configuration not stated)	0.7%	-20%	-2.2&6.1	68&69	-1%&16%	-27%	?
CSc1nc2ccc(NC(=O)C3=NNC(=O)CC3)cc2s1	-2.3%	-1%	1.3	-2	9%	-238%[inhibitor]	-17
CCCn1c(SCC(=O)Nc2nonc2C)nnc1-c1ccoc1C	0.4%	4%	2.3	-1	25%	-4%	2
c1ccc(CNc2ccc3c(c2)ncn3C2CCCCC2)nc1	-9.8%	5%	-1.7	10	-18%	1%	-3
COc1ccc(OC)c(C2C(C(=O)c3sc(C)nc3C)=C(O)C(=O)N2CCN2CCOCC2)c1 (configuration not stated)	-3.6%	0%	4.3	17	-1%	-2%	4
CCCCOc1ccc(C(=O)NCc2ccco2)cc1	-0.9%	3%	4.5	67	7%	-11%	-14
O=C(Cc1cccc2ccccc12)N/N=C1\CCCc2ccccc21	0.7%	-18%	-0.1	-7	16%	-3%	8
CC1CN(C(=O)c2cc(Br)c(Br)s2)CC(C)O1 (configuration not stated)	-0.4%	9%	nt	20	nt	22%	-17
O=S1(=O)CCS(=O)(=O)C1c1ccccc1	1.2%	5%	nt	0	nt	4%[15.4 µM]	nt
CN1CCN(CCCNc2c(C=O)c(=O)[nH]c3ccccc23)CC1	0.6%	9%	9.7	9	13%	-4%[15.4 µM]	3
O=C(NCc1ccco1)C(c1ccncc1)N(C(=O)Cn1nnc2ccccc21)c1ccccc1F (configuration not stated)	nt	-9%	nt	17	8%	0%[15.4 µM]	0
COC(=O)CN1C(=S)N(c2ccc(OC)cc2)C(=O)/C1=C/c1cccs1	2.7%	3%	6.8	1	1%	?	-5
CC(C)(C)c1ccc(S(=O)(=O)NNC(=O)C2CCN(Cc3cccc(F)c3)CC2)cc1	nt	0%	-1.4	-2	8%	10%[15.4 µM]	-2
COC(=O)C1=NN(c2ccc(Cl)cc2)C2C(=O)N(c3ccccc3OC)C(=O)C12 (configuration not stated)	?	-1%	5.1	-12	0%	-25%	-5
CCOC(=O)CCCCNC(=O)Nc1ccccc1	nt	0%	-0.1	23	17%	7%	-20
Cc1c(O)ccc2c(CN3CCOCC3)cc(=O)oc12	3.7%	28%	-3.9	2	11%	24%	-1
COCCNC(=O)c1c[nH]c2cc(OC)c(OC)cc2c1=O	?	1%	3.9	17	20%	-27%	-14
O=C1NC(c2cccs2)C(C(=O)c2ccccc2)C(O)(C(F)(F)F)N1 (configuration not stated)	1.3%	7%	2.3	4	14%	-3%	17
CC1(C)S/C(=N/N=C/c2ccco2)NC1=O	-1.5%	5%	-1.3	-1	11%	-42%[inhibitor]	7
CC(=O)N(Cc1ccc(Br)cc1)c1ccccc1C(=O)O	-1.9%	6%	0.0	-6	14%	3%	-12
O=C(NC1CCCC1)C(c1ccc(F)cc1)N(Cc1ccc(F)cc1)C(=O)CCl (configuration not stated)	-14%	11%	1.6	15	6%	2%[15.4 µM]	8
COc1ccc(-c2noc(CN(C)C(=O)CCCN3C(=O)[C@H]4CC=CC[C@H]4C3=O)n2)cc1	0.8%	nt	nt	-1	nt	-31%[inhibitor]	nt
CC1CC1C(=O)OCC(=O)NCc1ccc(Cl)cc1 (configuration not stated)	-0.5%	19%	-1.8	13	-4%	?	-8
CC(=O)Nc1ccc(Nc2nc(C)nc3c2nnn3Cc2ccccc2Cl)cc1	nt	-4%	3.4	7	2%	8%	0
COc1ccc(C(=O)NCC(=O)OCC(=O)Nc2cc(OC)ccc2OC)cc1	1.2%	4%	1.3	93	6%	7%	0
CCc1noc(C)c1C(=O)NNC(=O)c1cc(OC)c(OC)c(OC)c1	nt	9%	nt	16	nt	2%[15.4 µM]	-1
COc1ccc(Cc2nc3ccc(C(=O)NCCCSC)cc3o2)cc1OC	-3.0%	4%	2.7	2	17%	1%	-2
COc1ccc(S(=O)(=O)NCC(=O)N(CC2CCCO2)C(C(=O)NC2CCCC2)C(C)C)cc1 (configuration not stated)	0.7%	1%	-1.7	-4	10%	-10%[15.4 µM]	20
O=C(Nc1ccc2c(c1)OCO2)c1cncc(Br)c1	0.5%	7%	-0.4	-14	-11%	-16%	-17
Cc1ccc(/C=C2/SC(=O)N(CC(=O)N3CCOCC3)C2=O)s1	-0.7%	13%	nt	19	3%	-19%	-10
COc1ccc(-n2nc(C(=O)NCC(=O)NCc3ccc(F)cc3)c3ccccc3c2=O)c(OC)c1	-14%	-5%	0.9	3	1%	-15%	3
CC(C)n1nc(C(=O)NNC(=O)c2ccncc2)c2ccccc2c1=O	-3.1%	0%	nt	12	nt	3%[15.4 µM]	19
CCOC(=O)C(C)c1n[nH]c(=O)c2ccccc12 (configuration not stated)	-0.7%	3%	2.4	-6	18%	6%	6
COc1ccccc1CNC(=O)CN1C(=O)NC(c2ccccc2)(c2ccc(C)c(C)c2)C1=O (configuration not stated)	1.6%	-41%	nt	15	nt	20%	?
COC(=O)c1cc(-c2ccc(Cl)cc2)n(-c2ccc(S(N)(=O)=O)cc2)n1	nt	-20%	0.8	1	12%	6%	6
O=C(CSc1ccc(-c2cccnc2)nn1)Nc1ccccc1C(F)(F)F	1.0%	-14%	nt	1	22%	-9%[15.4 µM]	5
CCOc1ccc(NS(=O)(=O)c2ccc(NC(=S)NC(=O)C(C)C)cc2)cc1	0.4%	-6%	4.5	10	7%	-49%[inhibitor]	?
CC1(C)CC(NC(=O)c2cc([N+](=O)[O-])cc([N+](=O)[O-])c2)CC(C)(C)N1	1.3%	5%	3.8	-19	15%	-5%	0
CCOC(=O)CC1(NC(=O)c2cc(COc3c(F)cccc3F)on2)CCCCC1	0.3%	0%	nt	3	4%	29%	-6
O=C(CCC(=O)N(CC(=O)NC1CCCCC1)Cc1ccccc1)Nc1ccccn1	nt	2%	-2.5	5	-4%	5%[15.4 µM]	-3
Brc1ccc(CNc2cc3c(cc2Br)OCCO3)cc1	nt	-17%	-0.6	-8	15%	10%[15.4 µM]	5
Cc1cccc(C)c1NC(=O)CN(C)C(=O)C(c1ccccc1)c1ccccc1	nt	-17%	0.8	6	11%	12%[15.4 µM]	6
CSc1cc(/C=N/O)c(SC)s1	-8.2%	2%	7.3	18	1%	-3%	-13
CC(C(=O)Nc1nc2ccccc2s1)n1cc([N+](=O)[O-])cn1 (configuration not stated)	nt	-28%	2.3	-6	12%	13%[15.4 µM]	-12
COc1ccc([N+](=O)[O-])cc1NC(=O)c1cc(C)c(C)o1	-2.9%	-6%	-3.6	-16	6%	-7%	10
CCOC(=O)/C=C(/C)N1N=C(c2ccc(OC)cc2)CC1c1cccc([N+](=O)[O-])c1 (configuration not stated)	-2.5%	-4%	17	21	?	13%	3
CCc1nccn1S(=O)(=O)c1ccc(C)c(C)c1	0.7%	-11%	1.1	8	13%	-4%	7
Cn1c(C(=O)O)c(CC(=O)Nc2ccccc2F)c2ccccc21	-4.8%	10%	1.1	15	-5%	10%[15.4 µM]	0
O=C(NC(=O)c1csnn1)Nc1ccccc1Cl	1.5%	8%	nt	6	3%	19%	11
Cc1cc2c(cc1C)NC(=O)CC(c1ccccc1)=N2	0.6%	8%	nt	-14	nt	16%	nt
C/C(=N\NC(=O)c1c(Cl)c(C)nn1C)c1cccc(NC(=O)COc2ccc(Cl)cc2)c1	-7.4%	-19%	-1.6	14	4%	11%	?
O=C(c1ccco1)N1CCN(C(=O)c2ccccc2Oc2ccccc2)CC1	-0.6%	-10%	2.6	1	5%	-21%	-3
COc1ccc2c(C)nc(Nc3nc(C)cc(C)n3)nc2c1	?	10%	2.5	-2	8%	3%	1
CC1(C2CC2)NC(=O)N(CC(=O)N2CCN(c3ccccc3F)CC2)C1=O (configuration not stated)	-3.0%	nt	nt	1	nt	0%	nt
Cn1ccnc1SCC(=O)Nc1cccc(C#N)c1	-0.9%	12%	nt	-4	nt	28%	nt
CCOC(=O)c1cc(OC(=O)c2cccs2)n(-c2ccccc2)n1	-6.5%	-7%	-0.7	1	-1%	-11%	-17
COc1ccc(-c2cc(Cl)cc3c(=O)c4ccccc4n(C)c23)cc1F	?	?	-4.0	27	-9%	-12%	11
COC(=O)c1ccccc1NC(=O)C(=O)NCc1ccncc1	nt	4%	-5.0	16	16%	3%[15.4 µM]	0
CS(=O)(=O)N(CCc1ccccc1)CC(=O)NCc1cccnc1	-1.9%	0%	6.3	6	13%	1%	12
(listing goes on)
SMILES	ClpP mod	gsp antagonist	Menin MLL FP FL	TRPML1 inh	Sfp inh	gsp ag	TRPV1 potentiator
CC1CCC(CN2CCN=C2N(C)C)CC1 (configuration not stated)	-2.5%	-1%	nt	-10	nt	11%	-13
COc1ccccc1-c1ocnc1C(=O)N1CCN(S(=O)(=O)c2ccc(NC(C)=O)cc2)CC1	1.1%	-5%	-0.1	-6	11%	5%[15.4 µM]	3
COc1ccc(CN(C)CC(=O)NC(C)c2ccccc2)cc1OC (configuration not stated)	-4.0%	8%	-1.0	32	10%	3%[15.4 µM]	-7
CCOC(=O)c1ccccc1NC(=O)CC1Nc2ccccc2NC1=O (configuration not stated)	nt	nt	7.7	nt	5%	nt	-15
COc1ccc(CCNCCC(=O)Nc2c(C)cc(C)cc2C)cc1OC	-1.1%	8%	9.0	-4	12%	-5%[15.4 µM]	3
CS(=O)(=O)N1CCC2(CC1)OCCN2S(=O)(=O)c1ccccc1	-1.6%	9%	nt	11	nt	-35%[inhibitor]	-9

Screening results deposited in PubChem BioAssay by National Center for Advancing Translational Sciences (NCATS).
